Bioassay records as filed in PubChem.
AmpC nodet inh = inhibitors of E. coli AmpC beta-lactamase without detergent | Potency, µM (top dose mostly 28.7 µM), without a hit: at the top dose activity change, negative = inhibition | P00811 | AmpC nitrocefin hydrolysis, absorbance 480 nm, no detergent; potencies from a single point are estimates | actives 1.8% (n = 71,000); active = falling curve, for most hits resting on a single point; inconclusive = weak or doubtful change; inactive = flat or rising curve; further: % of control where 0% means no effect; about half of the hits show no inhibition at the top dose; a quarter of the inactives give rising signals
Target sequence (P00811 whole entry, looked up): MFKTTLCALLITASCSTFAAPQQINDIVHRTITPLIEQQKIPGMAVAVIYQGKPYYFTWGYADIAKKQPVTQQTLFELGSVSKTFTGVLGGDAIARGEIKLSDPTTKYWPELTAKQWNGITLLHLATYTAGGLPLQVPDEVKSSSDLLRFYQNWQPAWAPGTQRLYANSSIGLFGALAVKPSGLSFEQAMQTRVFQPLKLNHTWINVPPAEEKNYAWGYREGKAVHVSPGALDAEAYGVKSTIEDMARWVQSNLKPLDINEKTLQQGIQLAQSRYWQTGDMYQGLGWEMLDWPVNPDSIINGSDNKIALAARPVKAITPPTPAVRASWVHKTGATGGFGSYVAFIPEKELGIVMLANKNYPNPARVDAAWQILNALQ
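AmpC, 20 mM phosphate pH 7.0; 15 min cpd preinc, RT; start with nitrocefin (800 uM stock); A480 kinetic read, 20 s intervals, 4 min. No-enzyme wells = negative control.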
* hit, by the source's call; ? = inconclusive; & = joins results of further samples; [ ] = dose if it differs, or a comment. Potency means the concentration at half of the fitted maximal effect.

Start of the listing, in advance, 5 compounds:
structure,AmpC nodet inh
COCC(C)NC(=O)c1cccc(Cl)c1 (stereo not drawn),-6%
OCc1c[nH]c2ccccc12,-11%
N#Cc1nc(-c2ccco2)oc1NCCc1ccccc1,-8%
COc1ccc(N2C(=O)NC3CC2(C)Oc2ccccc23)cc1OC (stereo not drawn),22%
Cc1ccc(S(=O)(=O)NCCOc2nc(N(C)C)nc(N3CCOCC3)n2)cc1,16%

The list itself, from the start:
structure,AmpC nodet inh
COCC(C)NC(=O)c1cccc(Cl)c1 (stereo not drawn),-6%
OCc1c[nH]c2ccccc12,-11%
N#Cc1nc(-c2ccco2)oc1NCCc1ccccc1,-8%
COc1ccc(N2C(=O)NC3CC2(C)Oc2ccccc23)cc1OC (stereo not drawn),22%
Cc1ccc(S(=O)(=O)NCCOc2nc(N(C)C)nc(N3CCOCC3)n2)cc1,16%
CCOc1cc(CNc2ccc3[nH]c(=O)[nH]c3c2)ccc1OCC(=O)NC(C)(C)C,20%
O=C(CSc1ccc2c(c1)OCCO2)Nc1ccc(Cl)cn1,?
Cc1ccc(SCCNS(=O)(=O)c2ccc3c(c2)OCCO3)cc1,-6%
Cn1ncnc2c(=O)n(C)c(=O)nc1-2,-8%
COc1ccc(C(C)=O)c2c(O)cccc12,8%
Cc1cc(N(CC(=O)O)S(C)(=O)=O)ccc1Br,-8%
O=C(c1cccc(F)c1)N1CCN=C1SCc1cccnc1,10%
O=C1CCCC2C3CCCN4CCCC(CN12)C34 (stereo not drawn),-4%
O=C(Nc1ccccc1-c1ccccc1)NC1CCN(C(=O)N2CCOCC2)CC1,48%
Cc1nc(N2CCN(c3ccccc3)CC2)nc2c1C(=O)CCC2,49%
COc1ccc2c3c1OC1C[C@@H](O)C=C[C@@]31CCN(C)C2 (stereo partly drawn),-6%[12.8 µM]
CCOC(=O)CCc1c(C)c2ccc(OCc3nn[nH]n3)cc2oc1=O,1%
CCOc1ccc2ccccc2c1CNCCN1CCOCC1,0%
Nc1nc2c(s1)CCc1c-2cnn1-c1ccccc1,6%
Cc1cccc(OCC(=O)Nc2cc(C)ccc2O)c1,-12%
Cn1c(SCC(=O)N2CCOCC2)nnc1-c1ccccc1,0%
O=C(Cc1ccc(S(=O)(=O)N2CCCC2)s1)N1CCOCC1,-4%
COc1cccc(Nc2nnc(SCn3nnc4ccccc4c3=O)s2)c1,-10%
O=C(NCc1ccccn1)NC12CC3CC(CC(C3)C1)C2,-14%
S=c1[nH]nc(Cc2ccccc2)n1Cc1ccco1,-8%
Cn1c(=O)c2c(nc3sccn32)n(C)c1=O,4%
COc1cccc2cc(C(=O)C3=C(O)C(=O)N(CCCN4CCOCC4)C3c3ccncc3)oc12 (stereo not drawn),-5%
CCC(=O)Nc1ccccc1C(=O)N1CCOCC1,6%
CCN(CC)P(=O)(C(NC(=O)OC)C(F)(F)C(F)(F)C(F)(F)C(F)F)N(CC)CC (stereo not drawn),48%
CCN(CC(=O)NC(=O)NCc1ccco1)Cc1nc2ccccc2c(=O)[nH]1,54%
CCOc1cccc(C2C(C(=O)c3ccco3)=C(O)C(=O)N2Cc2ccncc2)c1 (stereo not drawn),0%
COc1ccc(-c2ocnc2C(=O)Nc2ccccc2N2CCCCC2)cc1,-11%
O=C(c1ccc(CS(=O)(=O)c2ccccc2)o1)N1CCOCC1,2.5µM*[single pt active]
O=C(CCc1nc(-c2ccccc2)no1)Nc1cc(C(F)(F)F)ccc1Cl,-8%
COc1cc(NS(=O)(=O)N2CCCC2)cc(OC)c1OC,-9%
CS(=O)(=O)N(Cc1ccccc1)c1ccc(C(=O)N2CCOCC2)cc1,16%
O=C(CSCCO)Nc1ccc(C2CCCCC2)cc1,41%
CC1Oc2ccccc2N(CC(=O)NCC2CCCO2)C1=O (stereo not drawn),-7%
O=C(OCc1nc2ccccc2s1)C1CCN(S(=O)(=O)c2cccs2)CC1,9%
Cc1noc(C)c1C(=O)N1CCC[C@@]2(CCN(Cc3nccs3)C2)C1,12%
COc1ccc(-n2c(Cc3cccn3C)nnc2SCC(=O)NCc2ccc(F)cc2)cc1,109%
Cc1ccc2nc3c(c(N)c2c1)CCN3c1ccccc1,1%
CCc1ccc(C2CC(=O)N3CN(c4ccccc4)CSC3=C2C#N)cc1 (stereo not drawn),20µM*[single pt active]
COc1ccc(Oc2ncc3nc(CCc4ccccc4)c(=O)n(C)c3n2)cc1,24%
Cc1cnc(CNc2ccnc(-c3ccccc3CN(C)C)n2)cn1,-8%
Cn1c(Cc2ccccc2)nnc1SCC(=O)Nc1ccc2c(c1)OCO2,19%
FC(F)(F)c1nnc2ccc(NCn3nnc4ccccc43)nn12,16%
CCCCC#Cc1ccccc1CC(=O)Nc1ccccc1,-22%
Cn1c(SCC(=O)Nc2ccc(N3CCOCC3)c(Cl)c2)nnc1-c1ccccc1,28%
CC(=O)c1cccc(NC(=O)CN2C(=O)NC3(CCCCCCC3)C2=O)c1,14%
Cn1c(C(=O)NC2CCCCC2)cc2c(=O)n(C)c3ccccc3c21,24%
CN1CCN(C(=O)c2ccc(Cl)c(S(=O)(=O)N3CCCCC3)c2)CC1,17%
O=C(O)CC(C(=O)Nc1cccc(C(F)(F)F)c1)C1CCCO1 (stereo not drawn),7%
CCCCc1ccc(S(=O)(=O)NCCc2ccncc2)cc1,37%
COCCn1c(NCc2ccccc2)nc2c1c(=O)[nH]c(=O)n2C,12%
CCOc1ccc(NC(=O)c2ccc(F)c(S(=O)(=O)N3CCN(c4ccccn4)CC3)c2)cc1,2%
O=C(CN1C2CCC1CC(NC(=O)NC1CCCCC1)C2)NC1CC1 (stereo not drawn),-5%
Cc1ccc(NC(=O)CC2Nc3ccccc3NC2=O)cc1Cl (stereo not drawn),-6%
CCOC(=O)c1c(NC(=O)c2ccc(-n3cnnn3)cc2)sc2c1CCCC2,36%
O=C(NCc1ccccc1)NC(=O)c1ccncc1,-3%

Part of the list above in order of count of non-hydrogen atoms, rising.
structure,AmpC nodet inh
CCCCc1ccc(S(=O)(=O)NCCc2ccncc2)cc1,37%
Cc1ccc(NC(=O)CC2Nc3ccccc3NC2=O)cc1Cl (stereo not drawn),-6%
COCCn1c(NCc2ccccc2)nc2c1c(=O)[nH]c(=O)n2C,12%
CN1CCN(C(=O)c2ccc(Cl)c(S(=O)(=O)N3CCCCC3)c2)CC1,17%
CC(=O)c1cccc(NC(=O)CN2C(=O)NC3(CCCCCCC3)C2=O)c1,14%
CCOC(=O)c1c(NC(=O)c2ccc(-n3cnnn3)cc2)sc2c1CCCC2,36%
Cn1c(SCC(=O)Nc2ccc(N3CCOCC3)c(Cl)c2)nnc1-c1ccccc1,28%

Remaining list, next part
structure,AmpC nodet inh
Cc1noc(C)c1-c1ccc2ncnc(N(C)Cc3ccco3)c2c1,53%
O=C(Nc1ccc2c(c1)OCO2)C1COc2ccccc2O1 (stereo not drawn),-10%
O=C(O)/C=C(/c1ccccc1)C(F)(F)F,-5%
CCCNC(=O)CC(NS(=O)(=O)c1ccc(Cl)cc1)c1ccco1 (stereo not drawn),-2%
Cc1ccc(CN2C(=O)CCC2C(=O)NCc2ccc(F)cc2)cc1 (stereo not drawn),18%
Cc1ccc(CNC(=O)[C@H]2C[C@@H]2[C@H](NP(=O)(c2ccccc2)c2ccccc2)c2ccccc2)o1,87%
CCSc1nc2ccccc2n1S(=O)(=O)c1ccccc1,1%
CNC(=O)NC1CCCCc2sccc21 (stereo not drawn),4%
O=C(O)Cn1c(SCCOc2ccccc2)nc2ccccc21,-15%
COc1ccc2c(c1)[C@]13CCCC[C@@H]1[C@H](C2)N(C)CC3,15%
CCCC(=O)Nc1ccc(N2CCN(CC)CC2)c(Cl)c1,-20%
COc1ccc(-n2cnnc2SCC(=O)c2cc(C)n(Cc3cccs3)c2C)cc1,78%
O=C(NCc1ccco1)c1cc(-c2ccc(Cl)cc2)on1,-6%
CCCCN(CC)S(=O)(=O)N1CCC(C(=O)NCc2ccc(F)cc2)CC1,66%
O=C(CSc1nc2c(c(=O)n1-c1ccc(F)cc1)SCC2)Nc1ccc2c(c1)OCO2,-15%
Cc1ccc(-c2csc(NC(=O)c3cccc(S(=O)(=O)N4CCN(C)CC4)c3)n2)cc1,134%
c1cnc(N2CC[C@@]3(CCCNC3)C2)nc1,10%
CCCS(=O)(=O)N1CCC(C(=O)c2cccc(C(F)(F)F)c2)CC1,34%
COC(=O)C1=C(C)N=c2s/c(=C/c3ccoc3)c(=O)n2C1c1ccccc1 (stereo not drawn),31%
CN1CCN(S(=O)(=O)c2ccc(=O)[nH]c2)CC1,12%
O=C(COc1cc(Cl)c(Cl)cc1Cl)Nn1cnnc1,4%
O=C(Nn1cnc2ccccc2c1=O)C1CCCCC1,-12%
Cc1noc(C)c1COC(=O)CCN1c2ccccc2Sc2ccccc21,39%
CC1CCc2nn(CC(=O)Nc3c(F)cc(F)cc3Br)cc2C1 (stereo not drawn),7%
Cc1ccc(C)c(C(=O)COC(=O)c2ccc(Br)o2)c1,-11%
CCCCOc1ccccc1C1C(C(=O)OC)=C(C)N(C)C(C)=C1C(=O)OC,74%
COc1ccc(N2Cc3ccccc3C2)cc1Cl,13%
CCC(=O)Nc1cc(OC)c(NC(=O)c2ccccc2)cc1OC,18%
CCOC(=O)c1ccc(NS(=O)(=O)c2c(C)n(C)c(=O)n(C)c2=O)cc1,12%
COc1cc2c(cc1NC(=O)CC1SC(N3CCCC3)=NC1=O)oc1ccccc12 (stereo not drawn),125%
Cn1c(C(=O)NCCCN2CCN(c3ccc(F)cc3)CC2)cc2c(=O)n(C)c3ccccc3c21,22%
COc1c(S(=O)(=O)N2CCCCC2)ccc2c(S(=O)(=O)N3CCCCC3)cccc12,39%
COc1cccc(-n2nnc3c(=O)n(Cc4ccc(C)cc4)cnc32)c1,4%
c1ccc(-c2nc(N3CCCCCC3)nc(-n3ccnc3)n2)cc1,49%
Cn1c(Cn2c(=O)sc3ccccc32)nnc1SCc1ccccc1F,21%
CCCC1COC(Cn2cncn2)(c2ccc(C)cc2)O1 (stereo not drawn),31%
CC(C)(C)NC(=O)CSc1nnc(C2CC2)n1Cc1ccccc1,18%
CCn1cc(C(=O)NCc2ccc3c(c2)OCO3)c(=O)c2cc(F)c(N3CCN(C)CC3)cc21,145%
CC(C)n1c(SC2C(=O)CC(C)(C)CC2=O)nc2c1c(=O)n(C)c(=O)n2C,-18%
CCn1nnc(-c2ccccc2NC(=O)c2cccc(-n3cnnn3)c2)n1,-7%
CN1CCC(c2c[nH]c3ccc(O)cc23)CC1,3%&-3%
CC(C)CCn1nnnc1C(c1ccccc1)N1CCN(C)CC1 (stereo not drawn),13%
CC(=NCCCN1CCOCC1)c1c(O)[nH]c(=O)[nH]c1=O,-8%
O=c1c2ccccc2nnn1CSc1nnc(-c2cccs2)n1Cc1ccccc1,28%
O=C(CNC(=O)C12CC3CC(CC(C3)C1)C2)NC1=NCCS1,-9%
Cc1cc(C)c(C#N)c(SCCS(=O)(=O)Cc2ccccc2)n1,1%
CCCCCCN(C(=O)CCCCCN1C(=O)NC(c2ccc(-c3ccccc3)cc2)C(C(=O)OCc2ccccc2)=C1C)C(C(=O)NCCCC)c1ccc(O)c(C(=O)OC)c1 (stereo not drawn),5%
Cn1nnnc1SCC(=O)N1CCN(Cc2ccccc2)CC1,-6%
COC(=O)c1ccc(C(NC(=O)OCc2ccccc2)/C(C)=C/[C@@H](C)C(=O)NCCc2c[nH]c3ccc(OC)cc23)cc1 (stereo partly drawn),8%
Cc1cc2ncn(CC(O)COC3CCCCC3)c2cc1C (stereo not drawn),32%
CCOC(=O)CCn1c(CC(=O)OCC)nc2ccccc21,4%
C=CCNC(=O)CCNS(=O)(=O)c1ccc(Br)cc1,15%
CC(C)(C)c1cc(CN2CCN(CCO)CC2)cc(C(C)(C)C)c1O,11%
COc1ccccc1CN1C(=O)CN(C2CCCC2)C(=O)C1c1ccc(F)cc1 (stereo not drawn),42%
CN(C)C(=O)c1ccc(-c2ccc3ncnc(N4CCC(C(=O)O)CC4)c3c2)cc1,2%
CC(C)(C)NC(=O)C1CCC(C)(C(=O)O)C1(C)C (stereo not drawn),-18%
CC1=C(C(=O)Nc2ccccc2)C(c2ccco2)C(C#N)=C(SCC(=O)OC(C)C)N1 (stereo not drawn),16%
CNC(=O)CN(c1cc(C)ccc1C)S(C)(=O)=O,10%
CC(=O)OC(C)(CCC(C)(OC(C)=O)C(C)=O)C(C)=O (stereo not drawn),2%
CN1CCC2(CC1)CCN(C(=O)c1cccc(F)c1)CC2,-4%

Next section:
structure,AmpC nodet inh
CCOC(=O)c1c(NC(=O)c2noc3c2CCCC3)sc(C)c1C,13%
O=C(NO)c1ccc(C(=O)N(C2CCCCC2)C2CCCCC2)cc1,27%
Cc1ccc(S(=O)(=O)NCc2cn3c(C)csc3n2)cc1,0%
O=C(Nc1cccs1)Nc1ccccc1Cl,-22%
CN1CCN(C2=C(Cl)C(=O)N(Cc3ccccc3)C2=O)CC1,22%
Cc1ccc2occ(CN3CC4CC(C3)c3cccc(=O)n3C4)c(=O)c2c1 (stereo not drawn),13%
COc1cccc(-c2cc(N)nn2C(=O)Nc2ccc(Cl)cc2)c1,4µM*[single pt active]

A portion of the library, so the mix of outcomes need not match the whole.
